Assay outcomes: PubChem, ICCB-Longwood Screening Facility, Harvard Medical School
Polio RdRp inh: poliovirus RdRp elongation inhibitors, primary screen, biochemical, fluorescence polarization, total intensity | % elongation, % (compound at 16.7 µg/mL) | poliovirus polymerase elongation; active compounds read low | AID 588519, 2011 | Genome polyprotein (Poliovirus type 1 (strain Mahoney)), P03300 | 150,000 tested, 0.66% active; in the data active = % elongation below about 90%; note: some results filed as inactive read as strong as hits
MenB inh: M. tuberculosis MenB inhibitors, primary screen, biochemical, absorbance; 1,4-dihydroxy-2-naphthoyl-CoA synthase (Mycobacterium tuberculosis (strain ATCC 25618 / …; MenB enzyme assay, absorbance read-out; some hits fall short of the stated cut; inhibition, %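 (about 12 µg/mL by stock and volumes)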; 100,000 tested, 0.43% active; AID 540299, 2011;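 active = mean of two replicates above 30%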;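 note: 0% = no compound and 100% = wells with inactive enzyme; the first replicate is given; strong numbers were not always called active; inactives centre near -10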
Target sequence (P9WNP5 whole entry, looked up): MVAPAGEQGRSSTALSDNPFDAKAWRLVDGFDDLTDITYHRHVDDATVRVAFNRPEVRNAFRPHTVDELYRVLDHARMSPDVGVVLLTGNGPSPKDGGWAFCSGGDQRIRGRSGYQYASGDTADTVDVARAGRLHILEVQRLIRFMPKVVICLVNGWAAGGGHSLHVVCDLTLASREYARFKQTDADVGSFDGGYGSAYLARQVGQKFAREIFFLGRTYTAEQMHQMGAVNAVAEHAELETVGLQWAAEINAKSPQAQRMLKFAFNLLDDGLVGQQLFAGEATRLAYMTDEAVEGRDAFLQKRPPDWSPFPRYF
Mtb MbtI inh: MbtI salicylate synthase inhibitors, primary screen, biochemical, fluorescence intensity; P9WFX0; purified MbtI enzyme, fluorescence intensity read-out; inhibition, %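 (about 17 µg/mL by stock and volumes)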; 100,000 tested, 0.89% active; AID 493033, 2011;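 active = above 50% in both replicates, above 80% if mildly self-fluorescent; inactive = the rest, strongly fluorescent compounds included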;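 note: 0% = mean of negative and 100% = mean of positive controls; one replicate is shown; some compounds called inactive have numbers as strong as hits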
Polio RdRp inh intensity: second read-out of Polio RdRp inh, no call of its own (marks repeat the call); % elongation; measured here: total intensity read-out; formula for this scale not given here;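 total fluorescence in place of polarization; lower means less elongation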
Starred values were filed as active, the others as inactive; x = no result given.

A first look:
SMILES | Polio RdRp inh | Polio RdRp inh intensity | MenB inh | Mtb MbtI inh
O=c1[nH]c2cc3c(cc2cc1C(c1nnnn1C1CCCC1)N1CC=C(c2ccc(F)cc2)CC1)OCO3 (stereo unspecified) | 104 | 103 | -5 | 2
COc1ccc(CN2CCOCC2)cc1C | 102 | 105 | -6 | -6
NC(=O)Cc1cc(=O)[nH]c(=S)[nH]1 | 102 | 108 | -52 | 8
CCOC(=O)C1CCN(C(=O)c2cccs2)CC1 | 104 | 102 | -25 | 0
O=C1NC(=O)N(Cc2ccccc2)C(=O)/C1=C\N1CCCc2ccccc21 | 101 | 101 | -32 | -3

Results (from the top)
SMILES | Polio RdRp inh | Polio RdRp inh intensity | MenB inh | Mtb MbtI inh
O=c1[nH]c2cc3c(cc2cc1C(c1nnnn1C1CCCC1)N1CC=C(c2ccc(F)cc2)CC1)OCO3 (stereo unspecified) | 104 | 103 | -5 | 2
COc1ccc(CN2CCOCC2)cc1C | 102 | 105 | -6 | -6
NC(=O)Cc1cc(=O)[nH]c(=S)[nH]1 | 102 | 108 | -52 | 8
CCOC(=O)C1CCN(C(=O)c2cccs2)CC1 | 104 | 102 | -25 | 0
O=C1NC(=O)N(Cc2ccccc2)C(=O)/C1=C\N1CCCc2ccccc21 | 101 | 101 | -32 | -3
Cc1ccc(-n2c(CCC(=O)OCC(=O)Nc3cc(C)on3)nc3ccccc3c2=O)cc1 | 104 | 109 | -10 | -4
CCOC(=O)CN(C)c1nc(-c2ccc(OC)c(OC)c2)cs1 | 104 | 101 | -17 | -8
O=C(c1ccc(Cl)cc1)N(c1ccccn1)C1CCCCC1 | 105 | 101 | -30 | -16
N#Cc1cc2cc3c(cc2nc1N1CCCN(C(=O)c2ccccc2)CC1)OCO3 | 102 | 105 | -24 | -12
CNc1nc(Oc2ccc(=O)n(C)n2)nc(SC)n1 | 102 | 103 | -22 | -9
Cc1ccccc1Cn1cnc2ccccc21 | 102 | 102 | -1 | -14
O=C(N/N=C/C=C/c1ccco1)c1ccccc1F | 101 | 102 | -13 | -8
O=c1[nH]c2ncccc2c(=O)n1Cc1ccccc1 | 102 | 102 | -14 | 76
O=C(Nc1sc2c(c1-c1nc3ccccc3s1)CCCC2)C1=COCCO1 | 101 | 100 | 2 | 0
O=C(O)C1=Cc2sc3c(c2CS1)CCCC3 | 100 | 101 | -38 | 95
O=C(/C=C/c1cccs1)NCC(c1ccc(F)cc1)N1CCOCC1 (stereo unspecified) | 101 | 101 | x | 4
N=c1c(S(=O)(=O)c2ccccc2)cc2c(=O)n3ccccc3nc2n1Cc1cccnc1 | 101 | 104 | -59 | 1
CC1Sc2nnc(Cc3ccc(Br)cc3)n2N=C1c1ccc(NS(C)(=O)=O)cc1 (stereo unspecified) | 78* | 72* | -30 | 26
CC1CCCCC1NC(=O)COC(=O)c1ccc(O)cc1 (stereo unspecified) | 103 | 109 | 4 | 3
CCOC(=S)SCc1cn2cccnc2n1 | 102 | 106 | -22 | 2
CCCSCCCn1cnc2c([nH]c3cc(OC)ccc32)c1=O | 102 | 104 | 3 | -3
CC(C(=O)NCC1CCCCC1)N1CCN(c2ccc(F)cc2)CC1 (stereo unspecified) | 100 | 108 | 10 | -10
Cc1sc2nc(CSCC(=O)NC(=O)c3cccn3C)[nH]c(=O)c2c1C | 105 | 105 | 10 | 52
COc1ccc(-c2nc3c(n2O)CCC/C3=N\O)cc1 | 100 | 104 | -5 | 94
COC(=O)c1ccccc1NC(=S)N1CCCCC1 | 97 | 93 | -2 | x
C/C(Cn1c(=O)oc2ccccc21)=N\OC(=O)c1ccc(Cl)cc1 | 103 | 101 | -21 | 10
N=c1sccn1CC(=O)NC(=O)NC1CCCC1 | 103 | 98 | 11 | 5
Cc1ccc(-c2nnc(NCc3ccco3)c3ccccc23)cc1C | 99 | 100 | 3 | 14
CC(=O)OCc1nc2ccccc2s1 | 102 | 102 | -22 | -2
Cc1cccc(-c2nc3ccccc3o2)c1 | 100 | 103 | -27 | 89
COCCN=Cc1cc(Br)cc(Br)c1O | 63 | 114 | -83 | 14
CCN(CC)c1ccc(NS(=O)(=O)c2ccc(F)cc2)cc1 | 98 | 100 | -17 | 1
O=C(c1ccc(CS(=O)Cc2cccc(Cl)c2)o1)N1CCN(Cc2ccccc2)CC1 (stereo unspecified) | 101 | 101 | 3 | -8
CCN(CC)c1ccc2cc(-c3ncc(-c4ccc(F)cc4)o3)c(=O)oc2c1 | 45 | 250 | -47 | x
O=C(N[C@@H](Cc1ccccc1)C(=O)OCc1ccccc1)c1ccco1 | 80* | 86* | -11 | -8
COC(=O)C1=CNC=C(C(=O)OC)C1c1cccc(OC)c1 | 104 | 99 | -48 | 115
CN(C)/C=N/c1nc2ccccc2s1 | 104 | 106 | 2 | 20
COC(=O)c1nc2n(n1)C(c1cc(OC)c(OC)c(OC)c1)C=C(c1cccc(OC)c1)N2 (stereo unspecified) | 103 | 104 | -22 | -9
COc1ccc(/C=C(\NC(=O)c2ccccc2)C(=O)Nc2ccc(F)cc2)cc1OC | 101 | 97 | x | -2
O=c1ccn(-c2ccc(F)cc2)nc1-c1ccn[nH]1 | 108 | 110 | 9 | 1
Cc1occc1C(=O)N=Nc1c(O)n(Cc2ccccc2Cl)c2ccccc12 | 101 | 97 | -4 | -4
CCOC(=O)c1c(C(=O)CSc2ncc(-c3ccc(F)cc3)n2Cc2ccco2)sc2c1CCCC2 | 101 | 102 | 4 | 3
Cc1cccc(NC(=O)/C=C/c2ccccc2)c1 | 103 | 103 | -19 | 3
O=S(=O)(c1ccc(N=C2NN=C(c3cc(F)ccc3F)CS2)cc1)N1CCOCC1 | 100 | 99 | -24 | -52
COc1ccc(/C=C/C(=O)N2CCCCC2)cc1OC | 103 | 106 | 0 | -10
CC1CCN(C(c2cccs2)c2nnnn2Cc2ccccc2)CC1 (stereo unspecified) | 101 | 105 | -71 | 4
OC(c1ccccc1)(c1ccccc1)C1CCN(C(=S)NCc2ccco2)CC1 | 102 | 103 | 0 | 23
c1cncc(CSc2ccc3nnc(-c4cccnc4)n3n2)c1 | 104 | 106 | -4 | 8
CN(C)C(=O)Cn1nc(-c2ccccc2)c2ccccc2c1=O | 100 | 102 | 17 | 0
O=C(CSc1ccc(Cl)cc1)N=C1NC(=O)CS1 | 103 | 107 | -28 | -1
COc1ccc(CNn2c(C)n[nH]c2=S)cc1 | 104 | 99 | -31 | 22
CCOc1ccc2ncc(C(=O)c3ccc(OC)cc3)c(N3CCN(C)CC3)c2c1 | 105 | 100 | -34 | 3
O=C(O)c1ccc(N2CC3CC(C2)c2cccc(=O)n2C3)c(NS(=O)(=O)c2cccc(C(F)(F)F)c2)c1 (stereo unspecified) | 100 | 101 | -31 | 10

As a working copy, part of the list above.
SMILES | Polio RdRp inh | Polio RdRp inh intensity | MenB inh | Mtb MbtI inh
c1cncc(CSc2ccc3nnc(-c4cccnc4)n3n2)c1 | 104 | 106 | -4 | 8
CN(C)C(=O)Cn1nc(-c2ccccc2)c2ccccc2c1=O | 100 | 102 | 17 | 0
O=C(CSc1ccc(Cl)cc1)N=C1NC(=O)CS1 | 103 | 107 | -28 | -1

Quoted from the listing:
For Mtb MbtI inh, Cc1occc1C(=O)N=Nc1c(O)n(Cc2ccccc2Cl)c2ccccc12 is listed with -4
For Mtb MbtI inh, CCOc1ccc2ncc(C(=O)c3ccc(OC)cc3)c(N3CCN(C)CC3)c2c1 is listed with 3
For Polio RdRp inh, O=C(O)c1ccc(N2CC3CC(C2)c2cccc(=O)n2C3)c(NS(=O)(=O)c2cccc(C(F)(F)F)c2)c1 (stereo unspecified) is listed with 100
For Polio RdRp inh intensity, COc1ccc(/C=C/C(=O)N2CCCCC2)cc1OC is listed with 106
For Mtb MbtI inh, OC(c1ccccc1)(c1ccccc1)C1CCN(C(=S)NCc2ccco2)CC1 is listed with 23

Rows were taken by chance (roughly 2% active in at least one column).
